Bioassay records deposited in PubChem BioAssay by several laboratories.
ALR H2O2 inh: human ALR oxidase inhibition via reduced H2O2; purified ALR, DTT oxidation, H2O2 HRP-luminol luminescence; inhibition, % (concentration not given with the values); P55789; 290,000 tested, 3.8% active;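 active = mean and each replicate at 75% or more; inconclusive = only one of the two met; inactive = neither met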;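 note: stock transfer was 7.5 nL into about 7.5 µL; 0% = neutral wells and 100% = wells with inactivated enzyme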
Target sequence (P55789 whole entry, looked up): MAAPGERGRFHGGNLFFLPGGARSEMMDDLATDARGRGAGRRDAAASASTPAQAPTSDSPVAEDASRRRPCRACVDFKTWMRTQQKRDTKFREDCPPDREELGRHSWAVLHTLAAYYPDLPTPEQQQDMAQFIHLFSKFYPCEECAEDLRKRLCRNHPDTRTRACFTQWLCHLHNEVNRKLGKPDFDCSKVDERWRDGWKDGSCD
Beta2AR agonist: agonists of human beta-2 adrenergic receptor inducing internalization; Am2.2-beta2AR cells, FAP receptor internalization, flow cytometry; reference of the scale not given here; response, % (concentration not given with the values); 340,000 tested, 0.43% active; AID 504454;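 active = response above a set limit, near 3 SD of response in nonfluorescent compounds, cut at about 42% in these data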;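 note: stock transfer was 100 nL into about 11 µL; a reference agonist was the positive control; negative values mostly stem from fluorescent compounds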
Calb FLC: affects C. albicans growth with fluconazole. C. albicans CaCi-2 (fluconazole-resistant clinical isolate) + fluconazole, Alamar Blue growth, 48 h. growth inhibition, % (test concentration not listed). 300,000 tested, 0.57% active;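 active = most replicates above 75%; inconclusive = exactly half above 75%; inactive = most below 75%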;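 note: all wells also contain fluconazole at 8 µg/ml as a sub-toxic cotreatment; 0% = median of DMSO wells and 100% = median of geldanamycin control wells; wells of about 8 µL received 7.5 nL stock; the first replicate is given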
RanGTP-Imp inh: inhibitors of RanGTP-importin-beta interaction, primary screen, biochemical, FRET, CFP-Ran, YFP-importin-beta, homogeneous. inhibition, % (concentration not given with the values). cell-free CFP-Ran/YFP-importin-beta FRET ratio. 300,000 tested, 1.1% active. AID 2216;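 active = most replicates above 15%; inconclusive = exactly half above 15%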;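 note: 0% = DMSO wells and 100% = Ran loaded with GDP instead of GTP; wells of about 40 µL received 100 nL stock; the first replicate is given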
LANA-H2A inh: blocks KSHV LANA binding to histone H2A/H2B. Q9QR71. cell-free LANA-H2A/H2B peptide, fluorescence polarization. AID 2629. inhibition, % (no concentration beside the values). 320,000 tested, 0.6% active; in the data active = inhibition mostly above about 10%, no sharp cut-off; inactive = mostly below about 6.7%;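 note: stock transfer was 7.5 nL into about 10 µL; 0% = median of vehicle wells and 100% = median of positive control wells; one replicate is shown; the record names a cut of 25% in any replicate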
Vif TR-FRET: HIV-1 Vif–A3G interaction blockers – biochemical, TR-FRET, GST-Vif 1-94, biotin-A3G peptide, dose response retest, primary screen (AID 1117319) | TR-FRET GST-Vif / biotin-A3G peptide binding; higher % means a stronger effect; test concentration not given here; strong numbers were not always called active | inhibition, %; hits with a dose series show IC50 in µM | 260,000 tested, 0.57% active;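 active = above the screen mean plus three standard deviations and confirmed in dose response; inconclusive = results disagree or hit not tested in dose response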;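 note: Vif residues 1-94 fused to GST binding biotinylated APOBEC3G peptide 110-148; 0% = full assay without inhibitor and 100% = GST in place of GST-Vif; retest series ran down from 100 µM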
HNF4A DNA FP: change in binding of human HNF4 alpha to DNA; P41235; HNF4a-FITC DNA binding, fluorescence polarization, 1 h; activity change, % at 10 µM; 360,000 tested, 0.3% active; AID 1224865; in the data active = activity change above about 30%, passing the limit was not always enough;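 note: controls were the assay level and a saturating level of protein; the project sought stronger binding though the title names inhibitors; some compounds called inactive have numbers as strong as hits; positive values seem to mean higher polarization but the record does not say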
Target sequence (P41235 whole entry, looked up): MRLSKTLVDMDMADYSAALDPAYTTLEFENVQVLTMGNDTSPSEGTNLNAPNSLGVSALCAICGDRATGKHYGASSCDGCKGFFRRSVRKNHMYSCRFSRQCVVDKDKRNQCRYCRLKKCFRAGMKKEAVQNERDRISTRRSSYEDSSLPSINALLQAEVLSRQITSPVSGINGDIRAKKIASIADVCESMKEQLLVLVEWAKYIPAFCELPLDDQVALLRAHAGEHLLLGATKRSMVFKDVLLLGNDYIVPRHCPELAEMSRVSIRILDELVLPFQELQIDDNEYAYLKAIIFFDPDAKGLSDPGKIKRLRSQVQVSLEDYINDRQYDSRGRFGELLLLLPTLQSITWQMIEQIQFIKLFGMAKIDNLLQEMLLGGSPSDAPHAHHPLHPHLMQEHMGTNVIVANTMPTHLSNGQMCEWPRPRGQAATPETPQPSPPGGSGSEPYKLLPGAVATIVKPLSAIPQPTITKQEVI
An asterisk follows results filed as active; ? = inconclusive; · = not tested or not shown; & = joins results of further samples.

SMILES	ALR H2O2 inh	Beta2AR agonist	Calb FLC	RanGTP-Imp inh	LANA-H2A inh	Vif TR-FRET	HNF4A DNA FP
CC(=O)OC1CCC2(C)C3CCC4(C)C(C(C)=O)CCC4C3CC3OC32C1 (centres undefined)	·	6	·	·	·	-8%	1.1
CC(C)OC(=O)c1c(-c2ccc(C(C)C)cc2)csc1NC(=O)C1CCCO1 (centres undefined)	5	10	-5	3.7	-0.2	13%	1.6
Cc1ccc(S(=O)(=O)NC(=O)N2CCCN(Cc3ccc(F)cc3)CC2)cc1	1	6	5	2.3	2.4	-4%	-3.5
c1ccc(-n2nnnc2Oc2cccc3cccnc23)cc1	-15	6	2	-0.1	9.1	-4%	0.3
COc1ccc(/C=N/NC(=O)c2c(C)nc3ccc(Cl)cn23)cc1OC	-15	-8	-2	-0.2	4.7	-3%	1.7
CC(=O)OCC1CCCC2=C(C)C(=O)CCC21COC(C)=O (centres undefined)	-2	-2	6	0.0	-1.7	-6%	-3.3
O=c1cc(CN2CCOCC2)c2cc(Cl)c(O)cc2o1	16	1	13	73*	0.0	·	-5.5
CCCOc1ccc(C(CC(=O)O)NC(=O)c2sc3ccccc3c2Cl)cc1 (centres undefined)	18	-9	36	0.0	-4.2	-14%	-3.6
O=C(CC1SC2=NCCN2C1=O)Nc1ccc(Br)cc1 (centres undefined)	-9	-1	8	3.0	0.9	25%	10
CC(NC(=O)c1cc(S(=O)(=O)N2CCOCC2)cn1C)c1ccccc1 (centres undefined)	5	-6	9	2.5	-1.6	·	1.4
Cc1cccn2c(=O)c(C=O)c(Nc3ccccc3)nc12	-7	14	-5	-4.3	9.4	·	0.2
CCS(=O)(=O)n1nc(-c2ccco2)nc1SC	-15	-2	2	2.1	-0.4	?	0.6

Laid out differently: four of the compounds above
The line under a structure holds: ALR H2O2 inh, Beta2AR agonist, Calb FLC, RanGTP-Imp inh, LANA-H2A inh, Vif TR-FRET, HNF4A DNA FP
c1ccc(-n2nnnc2Oc2cccc3cccnc23)cc1
 : -15, 6, 2, -0.1, 9.1, -4%, 0.3
COc1ccc(/C=N/NC(=O)c2c(C)nc3ccc(Cl)cn23)cc1OC
 : -15, -8, -2, -0.2, 4.7, -3%, 1.7
CC(=O)OCC1CCCC2=C(C)C(=O)CCC21COC(C)=O (centres undefined)
 : -2, -2, 6, 0.0, -1.7, -6%, -3.3
O=c1cc(CN2CCOCC2)c2cc(Cl)c(O)cc2o1
 : 16, 1, 13, 73*, 0.0, ·, -5.5

Next entries
SMILES	ALR H2O2 inh	Beta2AR agonist	Calb FLC	RanGTP-Imp inh	LANA-H2A inh	Vif TR-FRET	HNF4A DNA FP
O=C(NC1CC1)C1CCN(C2CCN(C(=O)CC3=CCCCC3)CC2)CC1	-3	2	-14	-2.3	0.3	-1%	-1.1
O=C1OC(c2ccccc2)Cc2cc(C(=O)N3CCN(c4ccc(F)cc4)CC3)ccc21 (centres undefined)	·	-1	·	·	·	-1%	2.0
CON1C(=O)CN(C(C)=O)C1c1ccc(Cl)cc1Cl (centres undefined)	·	-1	·	·	·	-1%	-4.1
CCOc1ccc(S(=O)(=O)N2CCOCC2)cc1NC(=O)c1ccc(N2CCCC2=O)cc1	-2	41	0	0.1	-1.0	-4%	4.2
Cc1cccc(C)c1OCC(=O)N(Cc1ccc(N(C)C)cc1)C1CCS(=O)(=O)C1 (centres undefined)	27	-6	-3	3.3	-2.3	-8%	-1.3
COc1ccccc1-n1cnc2cc(C(=O)N3CCOCC3)ccc21	-9	6	-1	2.7	0.9	·	3.6
O=c1[nH]c2cc3c(cc2cc1C(c1nnnn1C1CCCC1)N1CCSCC1)OCCO3 (centres undefined)	-3	7	-3	-4.5	-4.6	-2%	20
CC(C)(C)c1ccc(S(=O)(=O)Nc2ccc3c(c2)COC3=O)cc1	-2	8	0	-1.9	-1.7	3%	1.4
CCOC(=O)C1CCCN(c2nc3c(C)cccn3c(=O)c2/C=C(\C#N)C(=O)NCc2ccco2)C1 (centres undefined)	-14	10	15	-0.6	1.3	-3%	5.8
Brc1cc2c(cc1Cn1c(-c3cncs3)nc3ccccc31)OCO2	0	10	-9	3.3	-3.3	-7%	-0.5
O=C(Nc1ccccc1C(=O)O)c1cccc(S(=O)(=O)Nc2ccc(Br)cc2)c1	99*	-11	4	-2.7	19*	·	-4.8
COc1cc(NC(=O)c2nccn2C)cc(C(=O)Nc2cccc(C(F)(F)F)c2)c1	0	-3	-14	2.7	0.0	3%	3.8&2.7
Cc1ncc(CO)c(/C=N/NC(=S)Nc2ccc(C(C)C)cc2)c1O	39	8	-2	0.1	1.4	31%	9.0
C=CCN1C(=O)C(Cc2cccc(C)c2)SC1=Nc1ccc(C(=O)O)cc1 (centres undefined)	11	16	12	0.0	0.7	6%	-0.1
CCOC(=O)c1c(C)nc2c(c1-c1ccc(OC)c(OC)c1)C(=O)c1ccccc1-2	-3	2	-16	-2.2	-6.9	-43%	4.1
N#Cc1cccc(C(=O)Nc2ccc(S(=O)(=O)Nc3nccs3)cc2)c1	3	-3	·	·	7.8	·	-0.4
CS(=O)(=O)c1ccc(C(=O)OCC(=O)NC(=O)C2CCCCC2)cc1[N+](=O)[O-]	·	12	-6	0.6	-3.0	-6%	2.2
CC(C)(C)[C@H]1COC(=O)CC/C=C\C[C@H](CC(=O)N(CCO)Cc2ccccc2)C(=O)N1	7	3	·	·	-1.8	·	4.5
COc1ccc(C(=O)NC(=S)Nc2ccc3oc(=O)ccc3c2)cc1OC	-5	2	10	-0.5	0.5	·	1.7
Cn1c(-c2ccccc2)c[n+]2c1CCCCC2	-20	8	15	1.6	0.7	20%	4.7
Cc1ccc(NC(=O)NCCN2CCCCC2)cc1Cl	-9	-1	10	0.4	0.8	-4%	4.7
CCN(CC)CCSc1nc(O)c(C(C)C)c(=O)[nH]1	15	-4	22	-0.2	0.8	15%	0.3
CCCCN(C)C(=O)c1nc2ccccn2c1CN1CCN(c2cnccn2)CC1	5	3	-16	-3.5	1.5	32%	2.3
COc1cc(/C=C2/C(=O)NN(c3ccc(Cl)c(Cl)c3)C2=O)cc([N+](=O)[O-])c1O	98*	0	·	-3.7	-0.4	15%	-2.5

A different layout for part of the listing above:
Below each compound – ALR H2O2 inh | Beta2AR agonist | Calb FLC | RanGTP-Imp inh | LANA-H2A inh | Vif TR-FRET | HNF4A DNA FP
> CCCCN(C)C(=O)c1nc2ccccn2c1CN1CCN(c2cnccn2)CC1
→ 5 | 3 | -16 | -3.5 | 1.5 | 32% | 2.3
> Cc1ccc(S(=O)(=O)NC(=O)N2CCCN(Cc3ccc(F)cc3)CC2)cc1
→ 1 | 6 | 5 | 2.3 | 2.4 | -4% | -3.5
> Cc1ccc(NC(=O)NCCN2CCCCC2)cc1Cl
→ -9 | -1 | 10 | 0.4 | 0.8 | -4% | 4.7
> c1ccc(-n2nnnc2Oc2cccc3cccnc23)cc1
→ -15 | 6 | 2 | -0.1 | 9.1 | -4% | 0.3
> O=C1OC(c2ccccc2)Cc2cc(C(=O)N3CCN(c4ccc(F)cc4)CC3)ccc21 (centres undefined)
→ · | -1 | · | · | · | -1% | 2.0
> CS(=O)(=O)c1ccc(C(=O)OCC(=O)NC(=O)C2CCCCC2)cc1[N+](=O)[O-]
→ · | 12 | -6 | 0.6 | -3.0 | -6% | 2.2
> CCS(=O)(=O)n1nc(-c2ccco2)nc1SC
→ -15 | -2 | 2 | 2.1 | -0.4 | ? | 0.6

Quoted from the listing:
`CC(NC(=O)c1cc(S(=O)(=O)N2CCOCC2)cn1C)c1ccccc1` (centres undefined) | ALR H2O2 inh = 5
`CCOC(=O)c1c(C)nc2c(c1-c1ccc(OC)c(OC)c1)C(=O)c1ccccc1-2` | RanGTP-Imp inh = -2.2

More results follow.
SMILES	ALR H2O2 inh	Beta2AR agonist	Calb FLC	RanGTP-Imp inh	LANA-H2A inh	Vif TR-FRET	HNF4A DNA FP
Cc1cccc(OCCNC(=O)c2cncc(Br)c2)c1	-8	-5	·	·	2.0	·	0.5
C#CCN1C(=O)C(O)(CC(=O)c2cccc(OC)c2)c2ccccc21 (centres undefined)	0	-2	-56	2.0	1.5	-6%	-1.3
Cc1ccc(-c2csc(NC(=O)c3cnccn3)n2)cc1C	0	5	-11	-3.2	·	-6%	-0.3
Cc1ccc(NC(=S)NNC(=O)c2nn(C)c(C)c2Cl)cc1	90*	4	4	?	-2.9	17%	-1.9
Cc1ccc(CN=c2c([N+](=O)[O-])nn(-c3cccc(Cl)c3)n2O)cc1	-7	3	-13	4.5	-6.5	2%	1.5
CCN(CC)S(=O)(=O)c1cccc(C(=O)NCC2CCCCC2)c1	·	-7	3	-0.3	2.3	·	-0.2
CN(Cc1ccc(OCC(O)CN(C)Cc2ccccc2)cc1)Cc1nccn1C (centres undefined)	0	-3	1	7.5	4.8	·	1.2
CC(C)CC1c2[nH]c3ccccc3c2CCN1C(=O)C1CCOCC1 (centres undefined)	2	-3	15	?	2.4	-6%	-0.6
COCCN1C(=S)N[C@@H](c2cccc(F)c2)C(C(=O)OC)=C1C	-5	·	0	-1.3	0.7	·	·
O=C(c1ccccc1)N1CCN(C(=O)c2ccccc2)c2ccccc21	·	-2	·	·	·	2%	-0.6
Cc1cccc(OCC(=O)NC2CCCc3ccccc32)c1C (centres undefined)	-18	-5	21	-1.7	2.1	·	0.2
NC(=O)c1ccc(NC(=O)CN2CCN(c3ccccc3)CC2)cc1	-3	-9	0	3.1	-0.6	3%	3.2
O=C(NCCO)C(=O)NCC1OCCCN1S(=O)(=O)c1ccc2c(c1)OCCO2 (centres undefined)	-4	-4	-3	-0.2	0.5	1%	-0.2
COc1cc(C=Nc2cccc([N+](=O)[O-])c2C)ccc1OC(C)=O	-4	1	-4	0.8	-5.8	-2%	2.0
O=Cc1cccn1-c1cccnc1	-7	-2	1	3.1	0.8	4%	-0.4
O=c1ccn(-c2cccc(C(F)(F)F)c2)nc1-c1ccn(-c2ccccc2)n1	-3	-16	1	3.3	-1.2	23%	-3.3
Cc1ccc(-n2c(C)n[nH]c2=S)cc1C	·	1	7	0.8	-7.0	·	0.5
COc1ccc(N2C(=O)C3CCCN3C2c2ccc(C)o2)cc1Cl (centres undefined)	-2	10	3	0.5	0.7	-1%	2.8
COCCN(Cc1ccccc1)C(=S)Nc1ccc(OC(F)F)cc1	·	2	12	6.2	-3.6	7%	0.1
CN(CC(=O)Nc1ccccc1C(F)(F)F)C(=O)CN1C(=O)C2CCCCC2C1=O (centres undefined)	-2	-3	·	1.5	5.4	·	-1.0
COc1cccc(OCc2nnc(SCc3cc(=O)[nH]c4ccccc34)o2)c1	-5	-12	17	2.4	1.5	-2%	0.4
COc1ccc(C(=O)N2CCC(C(=O)N3CCN(Cc4ccccc4)CC3)CC2)cc1	-1	-5	-10	2.9	-1.0	-5%	-1.7
CN(C)CCNC=C(C(=O)Nc1ccc(Cl)cc1Cl)C(=O)Nc1ccc(Cl)cc1Cl	·	25	-7	0.5	3.2	-2%	-2.0
CC(=O)Nc1ccc(CNc2ncnc3ccc(-c4c(C)noc4C)cc23)cc1	-1	-7	·	·	-5.3	·	-0.2
